Source: PubChem BioAssay
T cruzi inh = T. cruzi replication inhibition; T. cruzi beta-gal in NIH3T3, luminescence, 90 h; inhibition, % (no concentration beside the values); 300,000 compounds, 1.4% hits;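 active = mean inhibition across valid replicates above about 55%, limit read from the data; inconclusive = mean below that limit but half or more replicates reach it; inactive = mean below it, under half of replicates reach it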;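 note: signal also drops with host cell toxicity which is not excluded here; 0% = plate median of DMSO wells and 100% = zero luminescence signal; higher percent means less beta-gal luminescence so fewer parasites; stock transfer was 50 nL into about 50 µL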
RanGTP-Imp inh = inhibitors of RanGTP-importin-beta interaction, primary screen, biochemical, FRET, CFP-Ran, YFP-importin-beta, homogeneous | cell-free CFP-Ran/YFP-importin-beta FRET ratio | inhibition, % (no concentration beside the values) | 300,000 compounds, 1.1% hits | AID 2216;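 active = most replicates above 15%; inconclusive = exactly half above 15%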;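 note: 0% = DMSO wells and 100% = Ran loaded with GDP instead of GTP; wells of about 40 µL received 100 nL stock; the first replicate is given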
Calb FLC = affects C. albicans growth with fluconazole | C. albicans CaCi-2 (fluconazole-resistant clinical isolate) + fluconazole, Alamar Blue growth, 48 h | growth inhibition, % (test concentration not listed) | 300,000 compounds, 0.57% hits | AID 1979;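 active = most replicates above 75%; inconclusive = exactly half above 75%; inactive = most below 75%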;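 note: all wells also contain fluconazole at 8 µg/ml as a sub-toxic cotreatment; 0% = median of DMSO wells and 100% = median of geldanamycin control wells; wells of about 8 µL received 7.5 nL stock; the first replicate is given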
A1 inh = inhibitors of the anti-apoptotic protein A1, read as caspase activation; 330,000 compounds, 0.066% hits; caspase activation, % (test concentration not listed); MEF A1-2A-BIM cells, Caspase-Glo 3/7 luminescence, 3 h; percent of clofoctol response, vehicle zero;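 active = over half of replicate activation scores above 10%, or exactly half above 10 with the replicate mean above 10; inconclusive = replicate mean below 10 yet half the replicates above 10; inactive = over half of replicates below 10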;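 note: wells of about 30 µL received 50 nL stock; many hits fall short of the cut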
LANA-H2B inh = blocks KSHV LANA binding to histone H2A/H2B; AID 2629; 320,000 compounds, 0.6% hits; cell-free LANA-H2A/H2B peptide, fluorescence polarization; inhibition, % (no concentration beside the values); in the data active = inhibition mostly above about 10%, no sharp cut-off; inactive = mostly below about 6.7%;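 note: stock transfer was 7.5 nL into about 10 µL; 0% = median of vehicle wells and 100% = median of positive control wells; one replicate is shown; the record names a cut of 25% in any replicate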
Target sequence (Q9QR71 whole entry, looked up): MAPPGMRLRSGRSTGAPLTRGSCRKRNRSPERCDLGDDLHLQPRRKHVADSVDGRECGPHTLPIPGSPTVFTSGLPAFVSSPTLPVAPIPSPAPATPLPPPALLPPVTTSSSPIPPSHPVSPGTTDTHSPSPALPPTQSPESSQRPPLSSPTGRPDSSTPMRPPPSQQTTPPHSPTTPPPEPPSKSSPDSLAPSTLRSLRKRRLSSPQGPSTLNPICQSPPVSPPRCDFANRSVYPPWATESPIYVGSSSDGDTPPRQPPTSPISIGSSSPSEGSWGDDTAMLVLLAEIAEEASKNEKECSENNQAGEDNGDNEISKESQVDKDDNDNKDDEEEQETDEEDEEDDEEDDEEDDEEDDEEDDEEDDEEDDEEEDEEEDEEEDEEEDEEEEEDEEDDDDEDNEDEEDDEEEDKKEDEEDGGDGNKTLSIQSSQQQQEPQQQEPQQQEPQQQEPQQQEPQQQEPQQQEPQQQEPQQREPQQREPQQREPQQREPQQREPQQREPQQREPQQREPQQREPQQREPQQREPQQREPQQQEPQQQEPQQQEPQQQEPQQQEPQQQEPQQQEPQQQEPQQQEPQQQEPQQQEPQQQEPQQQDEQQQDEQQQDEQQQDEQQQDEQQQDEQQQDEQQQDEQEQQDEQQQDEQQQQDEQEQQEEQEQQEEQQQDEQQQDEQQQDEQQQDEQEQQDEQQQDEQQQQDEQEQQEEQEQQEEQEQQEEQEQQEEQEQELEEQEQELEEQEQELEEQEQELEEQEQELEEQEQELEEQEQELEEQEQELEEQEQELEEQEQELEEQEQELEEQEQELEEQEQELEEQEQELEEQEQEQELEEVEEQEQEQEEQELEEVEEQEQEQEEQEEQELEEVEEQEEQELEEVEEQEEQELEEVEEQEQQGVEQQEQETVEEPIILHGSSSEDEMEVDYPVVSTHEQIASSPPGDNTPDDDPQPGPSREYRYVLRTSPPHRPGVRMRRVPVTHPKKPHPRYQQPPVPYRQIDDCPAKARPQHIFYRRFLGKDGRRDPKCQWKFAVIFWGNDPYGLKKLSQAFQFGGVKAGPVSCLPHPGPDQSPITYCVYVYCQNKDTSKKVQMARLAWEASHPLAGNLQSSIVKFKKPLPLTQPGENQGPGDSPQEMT
Beta apoptosis = beta cell apoptosis inhibition; INS-1E cytokine-induced death, ATP luminescence, 48 h; percent of positive-control rescue, neutral wells zero; protection from apoptosis, % (concentration not given with the values); 300,000 compounds, 0.8% hits;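 active = all replicates at 75% or more, or half of them and the mean; inconclusive = half reach 75% but not the mean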;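 note: 0% = cytokine-treated negative control wells and 100% = positive control rescue; higher means more ATP so stronger rescue from cytokine killing; wells of about 40 µL received 100 nL stock; the first replicate is given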
Vif TR-FRET = HIV-1 Vif–A3G interaction blockers – biochemical, TR-FRET, GST-Vif 1-94, biotin-A3G peptide, dose response retest, primary screen (AID 1117319); 260,000 compounds, 0.57% hits; TR-FRET GST-Vif / biotin-A3G peptide binding; higher % means a stronger effect; test concentration not given here; strong numbers were not always called active; inhibition, %; hits with a dose series show IC50 in µM;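 active = above the screen mean plus three standard deviations and confirmed in dose response; inconclusive = results disagree or hit not tested in dose response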;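 note: Vif residues 1-94 fused to GST binding biotinylated APOBEC3G peptide 110-148; 0% = full assay without inhibitor and 100% = GST in place of GST-Vif; retest series ran down from 100 µM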
AF4-AF9 inh = MLL-AF4/AF9 protein interaction inhibition. AlphaScreen, biotin-AF4 peptide binding to FLAG-AF9. inhibition, % at 10 µM. 350,000 compounds, 0.47% hits. P42568;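 active = every replicate reaching a set inhibition limit, whatever the replicate mean, cut at about 25% in these data; inconclusive = mean inhibition reaches that limit but some replicates miss it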;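 note: 0% = plate neutral control median and 100% = total signal loss; the record names both 10 and 1 µM as test concentration; the first replicate is given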
Active calls of the source: *; ? = inconclusive; · = not tested or not shown; & = joins results of further samples.

Structure,T cruzi inh,RanGTP-Imp inh,Calb FLC,A1 inh,LANA-H2B inh,Beta apoptosis,Vif TR-FRET,AF4-AF9 inh
Cc1ccc(NS(=O)(=O)c2cc(C(=O)N3CCN(C)CC3)ccc2C)cc1,1,-0.3,-3,1.2,-0.2,-7,7%,·
COc1ccc(OC)c(/C=C/c2[nH]c(=O)[nH]c(=O)c2[N+](=O)[O-])c1,0,0.5,1,·,·,·,-7%,-2.2
O=C1Nc2ccccc2C1c1ncc(C(F)(F)F)cc1Cl (stereo not given),7,0.6,11,1.1,-4.7,·,3%,-1.8
COc1ccc(S(=O)(=O)N(C(C)=O)c2ccc(OC(C)=O)c3ccccc23)cc1[N+](=O)[O-],-4,-0.4,2,-0.1,1.8,106*,14%,-6.6
CCN(CC)C(=O)Cn1cc(C(=O)C(=O)NCCCN2CCCCC2)c2ccccc21,5,-1.2,-2,1.5,1.7,-3,-1%,1.0
Cc1ccc(CCNC(=O)C2CCN(S(=O)(=O)N3CCC4(CC3)OCCO4)CC2)cc1,·,·,·,-0.1,-2.8,-8,1%,-2.9
CN(C)C(CNC(=O)c1cccc(OC(F)F)c1)c1ccco1 (stereo not given),-9,3.5,-12,-0.1,8.9,-2,·,·
CCCc1cc(=O)oc2c(C)c(OS(C)(=O)=O)ccc12,6,-0.3,9,-0.5,3.0,-2,·,·
O=C(COc1ccc(S(=O)(=O)N2CCCCC2)cc1Cl)N1CCCC1,0,?,-1,-1.2,-0.4,-5,2%,-1.5
Cc1ccc(NC(=O)Cn2cccc2C2=NC(c3ccccc3)CO2)cc1C (stereo not given),12,-3.5,-12,-0.3,-1.0,-4,·,-0.9
Cc1cc2oc(=O)cc(CN3CCC(C)CC3)c2cc1Cl,-3,1.0,30,-0.5,-0.5,6,1%,·
COCCNC(=O)c1snc2ccc(Cl)cc12,1,8.1,-2,-0.8,2.8,-8,-5%,4.2
Cc1cc(Cl)ccc1OCCCC(=O)N1CCN(C(=O)c2ccco2)CC1,-5,-0.9,-3,1.3,1.2,-4,2%,·
Cc1ccc2nc(SCC(=O)Nc3cc(C(F)(F)F)ccc3N3CCOCC3)[nH]c2c1,33,1.0,-1,0.2,1.0,45,2%&9%,·
CCCc1cc(=O)oc2c(C)c(OC(C)C(=O)NCc3ccccn3)ccc12 (stereo not given),3,4.0,-1,-0.9,0.6,-2,·,-0.7
O=C(Cn1nnc(-c2ccccc2-n2cnnn2)n1)NCc1ccccc1,5,?,0,0.7,3.7,2,14%,·
Cc1occc1-c1nnc(SCC(=O)NC2CCCCC2)o1,·,·,·,0.6,14*,-2,-4%,-0.3
CCOC(=O)c1c(S(=O)(=O)NCC(=O)Nc2ccc(F)cc2F)c(C)n(C)c1C,5,2.4,-1,0.5,3.9,-1,·,-0.8
COc1ccc2cc(CN(CC3CCCO3)C(=O)Nc3ccccc3OC)c(=O)[nH]c2c1 (stereo not given),11,3.1,12,2.1,-7.6,11,5%,0.5
CCCCn1c(N)c(N(CC(C)C)C(=O)c2cc(-c3ccco3)nc3ccccc23)c(=O)[nH]c1=O,2,0.2,6,1.8,2.0,-5,21%,-2.4
Cc1cc(C(=O)OCC(=O)c2ccccc2)c2ccccc2n1,-14,2.3,23,0.2,2.7,-8,·,-1.3
CC(=O)c1cccc(NS(=O)(=O)c2ccc(NC(=O)N3CCCCC3)cc2)c1,9,-1.6,-2,-1.0,-0.4,·,·,-0.6
CC(C)(C)c1ccc(C(CC(=O)O)NC(=O)Cc2ccccc2)cc1 (stereo not given),-8,-0.2,4,-0.7,-1.2,-8,-9%,-2.0
COc1ccc(-c2noc(CCC(=O)NCC3CCN(Cc4cccc(C)c4)CC3)n2)cc1,29,-0.4,-5,-1.7,2.6,12,6%&2%,·
COc1ccc(CNS(=O)(=O)c2ccc3c(c2)C(C)(C)C(=O)N3C)cc1,-9,11,-1,-0.3,-3.4,1,-13%,-1.9
Cc1ccc(-c2c(C#N)c(N)nc3c2CCCCC3)cc1,-30,-0.5,-6,1.2,5.4,5,0%,·
O=CNc1ccc(OC(=O)c2cncc(Br)c2)cc1,-9,0.1,-3,-0.7,6.9,-7,31%,1.4
Cc1cc(N2CCOCC2)ccc1/C=C\[N+](=O)[O-],13,0.5,-34,1.2,-1.9,-10,4%,1.0
CCOC(=O)N1CCN(C(=O)C(C)N(c2ccccc2)S(C)(=O)=O)CC1 (stereo not given),10,-1.3,0,0.5,1.0,-1,14%,-4.1
O=C1/C(=C/c2ccccn2)SC(=S)N1c1ccc(O)cc1,-36,-2.6,61,0.2,-2.2,-15,1%,·
Cc1nc(CN(C)Cc2nc(Cc3cccc(F)c3)no2)cs1,-18,4.5,13,0.4,2.6,-6,3%,0.2
Cc1ccc2c(CN3C(=O)NC(C)(c4ccc5c(c4)OCO5)C3=O)cc(=O)oc2c1 (stereo not given),18,?,-24,0.4,7.2,-3,14%,·
CCOC(=O)N1CCN(C(=S)Nc2cc(OC)c(OC)cc2C(=O)OC)CC1,12,0.2,3,1.2,0.6,5,2%,-26
Cc1ccccc1OCc1nnc(SCc2cc(=O)[nH]c3ccccc23)o1,16,1.3,5,1.7,1.5,-3,1%,·
CC12CC(c3ccccc3O1)C(C(=O)NCc1ccccc1)C(=O)N2 (stereo not given),1,7.0,-17,1.4,1.4,-4,-5%,·
CCOC(=O)Cc1csc(NC(=O)CN2CCN(c3ccccc3)CC2)n1,-6,-9.6,4,1.7,-3.4,-1,·,-21
Cc1cc(CN(C)C(=O)c2ccc(OC3CCN(CCc4ccccc4)CC3)cc2)on1,4,2.7,-3,0.3,-4.8,2,·,1.5
Nc1ncnc(Nc2ccccc2C(F)(F)F)n1,·,·,·,1.1,-0.8,-7,?,·
CC(C)c1ccc(NC(=O)[C@@H](NC(=O)N2CC(=O)Nc3ccccc32)C(C)C)cc1,-16,-7.8,-3,0.2,0.9,·,·,7.2
Cc1ccc(S(=O)(=O)N(C)C)cc1NC(=S)N1CCN(Cc2ccc3c(c2)OCO3)CC1,12,-0.1,-30,0.2,-2.0,·,-1%,1.1
O=C(CCNC(=O)Cn1ccc2ccccc2c1=O)NCCCN1CCOCC1,2,-5.9,-9,-0.6,2.5,5,5%,-31
Cc1ccc2c(c1)c(/C=C/c1cc[n+](C)cc1)c(C)n2C,66*,-156,89*,1.7,0.2,90*,·,3.5
COc1cccc(NC(=S)N2CCN(C/C=C/c3ccccc3)CC2)c1,10,2.7,-18,0.1,0.9,-7,?,·
O=C(CCN1C(=O)C2C3C=CC(C3)C2C1=O)NCCN1CCCc2ccccc21 (stereo not given),3,4.7,1,0.4,-1.3,-10,0%,·
C/C(=N\NC(=O)c1ccc(Cl)cc1)c1ccc(N2CCOCC2)cc1,-17,?,-25,1.1,0.7,-7,-9%,-1.1
O=C(COC(=O)C1C2CC3OC(=O)C1C3C2)Nc1cccc(Cl)c1 (stereo not given),-2,-15,4,0.0,-5.7,-1,·,-0.6
O=C(COC(=O)c1ccc([N+](=O)[O-])o1)NCc1ccc(F)cc1,·,·,·,1.5,-1.2,-1,·,-5.7
O=C(Nc1ccc(Br)cc1)N1CCCC(O)C1 (stereo not given),-13,5.3,-5,0.0,-1.3,-2,1%,0.4
c1cncc(CNc2nc(N3CCOCC3)nc(N3CCOCC3)n2)c1,2,-0.5,-7,0.3,1.7,-2,3%,-0.4
O=C(NC1CCCCC1)C(c1ccncc1)N(Cc1ccccc1)C(=O)c1ccc(-c2ccccc2)[nH]1 (stereo not given),70*,1.6,48,0.3,-2.5,4,-3%,·
CN1CCN(/N=C/c2ccc(-c3ccccc3)cc2)CC1,41,1.1,-21,-0.2,-0.9,4,·,35*
COc1ccc(NC(=O)CN2C(=O)NC(C)(C3CCCCC3)C2=O)c(OC)c1 (stereo not given),·,·,·,0.0,1.4,0,·,-2.0
CCOC(=O)c1ccc[n+](CC(=O)c2ccccc2)c1,-1,25*,-5,0.3,3.8,5,·,·
O=C(N/N=C/c1ccco1)c1ccc(NC(=O)C2CCCCC2)cc1,·,·,-17,-1.6,-3.0,0,·,-0.9
COc1cccc(CNC(=O)c2ccc3nc[nH]c3c2)c1,-3,0.9,11,0.6,-3.7,-4,?,·
O=C(COC(=O)C1(c2ccccc2F)CCCC1)N1CCc2ccccc21,10,-2.5,-15,-0.8,6.0,-2,·,·
CC1Sc2ccc(S(=O)(=O)CCC(=O)NCc3ccccc3Cl)cc2NC1=O (stereo not given),8,-1.0,0,0.4,4.8,-7,·,·
CCOC(=O)CSc1nnc(CNc2ccccc2Cl)n1-c1ccccc1,-12,?,3,-0.4,2.5,-5,0%,·
CCOC(=O)C1/C(=N\O)CC(C)(O)C(C(=O)OCC)C1c1ccc(N(C)C)cc1 (stereo not given),8,0.4,1,0.1,-1.1,-3,?,·
Cc1c(Cl)cccc1Nc1ccccc1C(=O)O,-16,-4.4,·,-0.7,-5.5,2,?,-5.5

More entries follow:
Structure,T cruzi inh,RanGTP-Imp inh,Calb FLC,A1 inh,LANA-H2B inh,Beta apoptosis,Vif TR-FRET,AF4-AF9 inh
S=c1[nH]nc(-c2cc(-c3ccco3)[nH]n2)n1-c1cccc2ccccc12,-14,2.4,?,-0.9,2.0,-7,17%,·
CCOC(=O)C1CCN(c2ncnc3c2nnn3Cc2ccccc2Cl)CC1,5,-2.3,-23,-0.2,-1.6,-4,0%,1.0
CSc1ccc(/C=N/NC(=O)c2ccc(C)c(C)c2)cc1,0,0.4,10,0.7,-0.5,3,4%,·
CCOC(=O)C1CCCN(S(=O)(=O)c2ccc(-c3cc(C)no3)s2)C1 (stereo not given),0,4.1,14,0.7,5.8,-3,·,3.0
O=S(=O)(Nc1cccnc1)c1ccccc1,6,-2.4,5,0.7,0.9,·,17%,-0.3
CCn1c(SCC(=O)Nc2cccnc2Cl)nnc1-c1ccccc1,-4,-1.2,-7,0.2,1.8,-2,·,-2.6
CCOC(=O)c1ccc(CNC(=O)Cn2nnc(-c3ccccc3F)n2)o1,-2,0.9,5,0.1,4.3,0,-2%,-1.5
CSCC[C@@H](Nc1nc(-c2ccccc2)nc2c1oc1ccccc12)C(=O)O,·,0.0,31,-1.3,-0.4,-5,3%&-1%,·
OC(COc1ccc(Br)cc1)CN1CCOCC1 (stereo not given),-9,3.1,-2,-0.5,3.9,-6,3%,·
CN1CCN(CC(=O)Nc2ccc(S(=O)(=O)N(C)C)cc2)CC1,3,4.4,-1,-0.5,0.1,0,2%,-2.3
COc1cccc(/C=C/C(=O)OCC(=O)N2CCCC2)c1OC,·,·,·,0.1,-0.9,-2,·,-2.0
Nc1sc(-c2ccccc2)n[n+]1Cc1cccc2cccnc12,60*,?,30,-0.1,1.8,10,·,4.3
